Compound activity from PubChem.
NPYLR7 agonist: agonists of mosquito NPYLR7 receptor, primary screen, cell-based, Aedes aegypti, calcium fluorescence, mosquito biting behavior; activation, % at 10 µM; 270,000 compounds, 0.15% hits; HEK293T NPYLR7/Galpha15, GCaMP6s calcium fluorescence; Aedes aegypti neuropeptide Y-like receptor 7 (NPYLR7); in the data active means activation above about 40%;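 further: 0% = vehicle and 100% = reference agonist at the receptor; some compounds past the cut are filed as inactive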
NPYLR7 agonist max-min: further read-out of NPYLR7 agonist, marked with its call; activation, %; measured here: Max-Min RFU normalised activation; some inactives read as strong as hits;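 span of the calcium signal over five minutes; 0% = vehicle and 100% = native peptide agonist; compound fluorescence can raise it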
The depositor's hits bear a star; & = joins results of further samples.

CCN(c1ccc(NS(=O)(=O)c2ccc(C)c(C)c2)cc1)C(C)C
  NPYLR7 agonist: -1.4 | NPYLR7 agonist max-min: -6.9
Cc1cc(Cl)cc(Cl)c1CNC(=O)c1cncn1-c1cccc(-c2cccc(OC(F)(F)F)c2)c1
  NPYLR7 agonist: 6.1 | NPYLR7 agonist max-min: 1.7
CCC(=O)N(CCCOC)Cc1c(-c2ccccc2)noc1N1CCCC1
  NPYLR7 agonist: 8.8 | NPYLR7 agonist max-min: 11.7
COCCN1CCC(CN2CCC3(CCCN(C(=O)C4CCCC4)C3)C2)CC1 (stereo not drawn)
  NPYLR7 agonist: -2.7 | NPYLR7 agonist max-min: -13.6
CCOC(=O)C1CCCN(C(=O)c2csc(-c3cc4ccccc4[nH]3)n2)C1 (stereo not drawn)
  NPYLR7 agonist: -0.8 | NPYLR7 agonist max-min: -0.8
CC1=NOC(Cc2ccccc2)C(=O)N1Cc1ccc2c(c1)OCO2 (stereo not drawn)
  NPYLR7 agonist: 5.9 | NPYLR7 agonist max-min: 2.7
O=C(O)c1c(Cl)cccc1Oc1ccccc1Cl
  NPYLR7 agonist: 5.7 | NPYLR7 agonist max-min: 2.3
COc1cc(C(C)NC(=O)Nc2cccc(Cl)c2)ccc1OCCO (stereo not drawn)
  NPYLR7 agonist: -1.6 | NPYLR7 agonist max-min: -2.8
COC(=O)C(CNC(=O)C1CCCN(C(=O)N(C)C)C1)CC(C)C (stereo not drawn)
  NPYLR7 agonist: -3.6 | NPYLR7 agonist max-min: -5.5
Cc1nc(CN(C)C(=O)C(C)n2ccnc2C(C)C)cs1 (stereo not drawn)
  NPYLR7 agonist: 4.1 | NPYLR7 agonist max-min: -2.9
NC(=O)c1c(NC(=O)CSCC(=O)O)sc2c1CCCC2
  NPYLR7 agonist: 2.9 | NPYLR7 agonist max-min: 5.4
CCCCS(=O)(=O)N1CCN(c2ccc(-n3nc(C)c(C)c3C)nn2)CC1
  NPYLR7 agonist: -3.8 | NPYLR7 agonist max-min: -8.1
O[C@H]1CCN(c2ccc(-c3nc(-c4cccc(C(F)(F)F)c4)no3)cn2)C1
  NPYLR7 agonist: -3.1 | NPYLR7 agonist max-min: -7.9
N#CC(Cc1ccc(O)cc1)c1ccc(O)cc1 (stereo not drawn)
  NPYLR7 agonist: -11.9 | NPYLR7 agonist max-min: -17.8
Cc1ccc(NC(=O)CSc2nc3c(c(=O)n2Cc2ccccc2)SCC3)cc1
  NPYLR7 agonist: -14.6 | NPYLR7 agonist max-min: -17.0
CCOc1ccc2nc(CN3CCN(CC=C(C)C)C(CCO)C3)ccc2c1 (stereo not drawn)
  NPYLR7 agonist: 4.1 | NPYLR7 agonist max-min: -0.7
C1=CC[C@H]2CN(c3ncnc4[nH]ccc34)C[C@H]2C1
  NPYLR7 agonist: -1.6 | NPYLR7 agonist max-min: -4.8
COc1cccc(NC(=O)CN2CN(c3ccccc3)C3(CCN(C(=O)/C=C/c4ccc([N+](=O)[O-])cc4)CC3)C2=O)c1
  NPYLR7 agonist: 26.5 | NPYLR7 agonist max-min: 28.2
CCC(CNC(=O)CN1C(=O)SC(=Cc2cccs2)C1=O)c1ccccc1 (stereo not drawn)
  NPYLR7 agonist: 16.8 | NPYLR7 agonist max-min: 3.0
Cn1c(=O)n(Cc2ccccc2F)c(=O)c2c1nc1n2CCN1Cc1ccccc1
  NPYLR7 agonist: 27.3 | NPYLR7 agonist max-min: 22.7
C/C(=C\c1ccccc1)CN1CCCC(n2cc(C(=O)NCCCO)nn2)C1 (stereo not drawn)
  NPYLR7 agonist: 5.2 | NPYLR7 agonist max-min: 1.4
Cn1c(=O)[nH]c(=O)c2c1nc(N1CCN(Cc3c(F)cccc3Cl)CC1)n2Cc1ccccc1
  NPYLR7 agonist: 7.8 | NPYLR7 agonist max-min: 5.2
CC(C(=O)Nc1ccc(F)c(F)c1)N1CCN(C(=O)c2cccs2)CC1 (stereo not drawn)
  NPYLR7 agonist: 5.0 | NPYLR7 agonist max-min: 8.6
Cc1nccn1CC(C)CNC(=O)c1cncc(-c2cnn(C)c2)c1 (stereo not drawn)
  NPYLR7 agonist: 10.1 | NPYLR7 agonist max-min: 3.1
COc1ccc(S(=O)(=O)N2CCCC(C(=O)Nc3cc(C)ccn3)C2)cc1 (stereo not drawn)
  NPYLR7 agonist: 3.0 | NPYLR7 agonist max-min: 0.4

15 entries from above in a different format.
SMILES,NPYLR7 agonist,NPYLR7 agonist max-min
NC(=O)c1c(NC(=O)CSCC(=O)O)sc2c1CCCC2,2.9,5.4
CCCCS(=O)(=O)N1CCN(c2ccc(-n3nc(C)c(C)c3C)nn2)CC1,-3.8,-8.1
O[C@H]1CCN(c2ccc(-c3nc(-c4cccc(C(F)(F)F)c4)no3)cn2)C1,-3.1,-7.9
N#CC(Cc1ccc(O)cc1)c1ccc(O)cc1 (stereo not drawn),-11.9,-17.8
Cc1ccc(NC(=O)CSc2nc3c(c(=O)n2Cc2ccccc2)SCC3)cc1,-14.6,-17.0
CCOc1ccc2nc(CN3CCN(CC=C(C)C)C(CCO)C3)ccc2c1 (stereo not drawn),4.1,-0.7
C1=CC[C@H]2CN(c3ncnc4[nH]ccc34)C[C@H]2C1,-1.6,-4.8
COc1cccc(NC(=O)CN2CN(c3ccccc3)C3(CCN(C(=O)/C=C/c4ccc([N+](=O)[O-])cc4)CC3)C2=O)c1,26.5,28.2
CCC(CNC(=O)CN1C(=O)SC(=Cc2cccs2)C1=O)c1ccccc1 (stereo not drawn),16.8,3.0
Cn1c(=O)n(Cc2ccccc2F)c(=O)c2c1nc1n2CCN1Cc1ccccc1,27.3,22.7
C/C(=C\c1ccccc1)CN1CCCC(n2cc(C(=O)NCCCO)nn2)C1 (stereo not drawn),5.2,1.4
Cn1c(=O)[nH]c(=O)c2c1nc(N1CCN(Cc3c(F)cccc3Cl)CC1)n2Cc1ccccc1,7.8,5.2
CC(C(=O)Nc1ccc(F)c(F)c1)N1CCN(C(=O)c2cccs2)CC1 (stereo not drawn),5.0,8.6
Cc1nccn1CC(C)CNC(=O)c1cncc(-c2cnn(C)c2)c1 (stereo not drawn),10.1,3.1
COc1ccc(S(=O)(=O)N2CCCC(C(=O)Nc3cc(C)ccn3)C2)cc1 (stereo not drawn),3.0,0.4

Later entries.
O=C(NCc1ccco1)c1ccc(CSc2nnc(-c3ccncc3)n2-c2cccc(Cl)c2)cc1
  NPYLR7 agonist: 12.1 | NPYLR7 agonist max-min: 4.4
COCCN(Cc1ccncc1)Cc1cccs1
  NPYLR7 agonist: 6.0 | NPYLR7 agonist max-min: -4.0
CCc1noc(C)c1C(=O)N(CC)CC1CCN(CCc2ccccc2C)CC1
  NPYLR7 agonist: 5.6 | NPYLR7 agonist max-min: 0.0
Cc1cc(C)c2c(n1)nn1c(NCCOCCO)cc(C)nc21
  NPYLR7 agonist: -3.3 | NPYLR7 agonist max-min: 6.6
Fc1ccccc1-c1noc(N2CCOCC2)c1CNCc1ccco1
  NPYLR7 agonist: 20.7 | NPYLR7 agonist max-min: 18.1
c1cn(-c2ccc3cn[nH]c3c2)c(-c2ccc(C3CCCO3)s2)n1 (stereo not drawn)
  NPYLR7 agonist: 0.9 | NPYLR7 agonist max-min: 0.4
O=C(c1ccc(-c2nnco2)cc1)N1CCN(S(=O)(=O)c2ccccc2Cl)CC1
  NPYLR7 agonist: -5.0 | NPYLR7 agonist max-min: -8.6
Cc1nc2n(n1)CC(NCC(=O)N(C)CCC#N)CC2 (stereo not drawn)
  NPYLR7 agonist: 9.3 | NPYLR7 agonist max-min: 6.7
CCCC1COCCN1Cc1cnc(OC)nc1 (stereo not drawn)
  NPYLR7 agonist: 10.9 | NPYLR7 agonist max-min: 9.8
Cc1ccc(Nc2nc(NCCCn3ccnc3)nc3[nH]ncc23)cc1
  NPYLR7 agonist: 2.3 | NPYLR7 agonist max-min: -1.7
O=C(/C=C/c1cccc(Br)c1)Nn1cnnc1
  NPYLR7 agonist: -7.5 | NPYLR7 agonist max-min: -9.5
Cc1cc(C)cc(-n2nnc3c(=O)[nH]cnc32)c1
  NPYLR7 agonist: -7.0 | NPYLR7 agonist max-min: -5.9
CN(C(=O)NCc1ccc(-n2cccn2)cc1)C1CCCCC1
  NPYLR7 agonist: -23.4 | NPYLR7 agonist max-min: -24.5
COc1ccc(C(=O)Nc2ccc(-c3onc4c3CCCC4)cc2)cc1C(F)(F)F
  NPYLR7 agonist: 2.7 | NPYLR7 agonist max-min: -0.1
CC1=NCCN=C(C(F)(F)F)C1Br (stereo not drawn)
  NPYLR7 agonist: 1.8 | NPYLR7 agonist max-min: 3.9
O=C(Nc1ccccc1F)c1cc(-c2ccccc2Cl)nc2ccccc12
  NPYLR7 agonist: 5.4 | NPYLR7 agonist max-min: -3.9
CCC(C)(NCCCS(C)(=O)=O)c1nccs1 (stereo not drawn)
  NPYLR7 agonist: 3.5 | NPYLR7 agonist max-min: -0.9
Cc1ccc2[nH]c3c(c2c1)SC(C)(C)CC3=O
  NPYLR7 agonist: -1.0 | NPYLR7 agonist max-min: -1.1
CC(=O)N[C@H]1CCN(C(=O)C[C@@H]2[C@H](O)CCC3[C@]4(C)CO[C@@H](Cc5ccccc5)O[C@@H]4CC[C@]32C)C1 (stereo partly drawn)
  NPYLR7 agonist: -8.3 | NPYLR7 agonist max-min: -16.0
CS(=O)(=O)N1CCN(C(=O)CCN2CCc3sccc3C2c2cccc(F)c2)CC1 (stereo not drawn)
  NPYLR7 agonist: 8.2 | NPYLR7 agonist max-min: 1.1
C=CCCC(O)CN(CCC(C)C)Cc1nc2sc3c(c2c(=O)[nH]1)CCC3 (stereo not drawn)
  NPYLR7 agonist: -6.2 | NPYLR7 agonist max-min: -1.9
CCN(CC)S(=O)(=O)c1ccc2nc(N3CCN(c4ccccc4F)CC3)cnc2c1
  NPYLR7 agonist: 11.5 | NPYLR7 agonist max-min: 6.0
CC1CC1c1ccc(C2Nc3ccccc3C(=O)N2C2CC2)o1 (stereo not drawn)
  NPYLR7 agonist: -16.4 | NPYLR7 agonist max-min: -20.5
O=C1NCCNC12CCN(C(=O)C1(c3ccc(Cl)cc3)CC1)CC2
  NPYLR7 agonist: -3.8 | NPYLR7 agonist max-min: -7.9
O=C1C=C(NCCc2ccccc2)C(=O)N1CCc1ccccc1
  NPYLR7 agonist: 10.5 | NPYLR7 agonist max-min: 4.2

CC1(C)O[C@@H]2[C@H](O1)[C@@H](C(=O)O)O[C@H]2n1cnc2c(=O)[nH]cnc21
  NPYLR7 agonist: 0.4 | NPYLR7 agonist max-min: -1.5
CCOC(=O)c1ccc(Nc2[nH]c(=O)c3ccccc3c2C(=O)c2ccncc2)cc1
  NPYLR7 agonist: -2.8 | NPYLR7 agonist max-min: -1.5
CC1=C(C(=O)OCC(C)C)C(c2ccc(NC(=O)c3ccco3)cc2)NC(=S)N1C (stereo not drawn)
  NPYLR7 agonist: 13.5 | NPYLR7 agonist max-min: 14.3
Cc1cccc(C2CCCN2Cc2nc(N)nc(N(C)C)n2)c1C (stereo not drawn)
  NPYLR7 agonist: -23.3&6.5 | NPYLR7 agonist max-min: -26.1&4.6
CC(Oc1cccc(Cl)c1)C(=O)NCC1Cc2cc(-c3ccc(S(C)(=O)=O)cc3)ccc2O1 (stereo not drawn)
  NPYLR7 agonist: 15.7 | NPYLR7 agonist max-min: 2.7
O=C(CN1C2=NCCN2c2ccccc21)c1cccc2ccccc12
  NPYLR7 agonist: 0.4 | NPYLR7 agonist max-min: -1.6
O=C(c1ccc(C(F)(F)F)cc1)N1CCC2(CC1)SCCN2C(=O)C1CCCCC1
  NPYLR7 agonist: 1.3 | NPYLR7 agonist max-min: 2.1
Cc1cc(-n2c(C)cc(C(=O)CSc3nnc(C4CC4)n3C)c2C)no1
  NPYLR7 agonist: 11.0 | NPYLR7 agonist max-min: 7.2
Cc1ccc(C(=O)CN2CCNCC2)cc1
  NPYLR7 agonist: 2.5 | NPYLR7 agonist max-min: 1.0
CC(C)(C)c1ccc(S(=O)(=O)N2CCCCC2C(=O)O)cc1 (stereo not drawn)
  NPYLR7 agonist: 0.9 | NPYLR7 agonist max-min: -0.6
O=C(O)c1cc2cc(Cl)ccc2[nH]1
  NPYLR7 agonist: -7.4 | NPYLR7 agonist max-min: -10.7
CCC(CC)n1nc(C)cc1NC(=O)CN1CCCCCC1=O
  NPYLR7 agonist: 0.8 | NPYLR7 agonist max-min: 8.5
CCN(CC)Cc1cnc2c(C(=O)N3CCc4ccccc4C3)cnn2c1
  NPYLR7 agonist: 2.2 | NPYLR7 agonist max-min: 0.8
CC(=O)Nc1cccc(NC(=O)CSc2cn(CC(=O)N3CCC(C)CC3)c3ccccc23)c1
  NPYLR7 agonist: -5.5 | NPYLR7 agonist max-min: -8.2
O=C(NC1CCNCC1)C(F)(F)F
  NPYLR7 agonist: 1.4 | NPYLR7 agonist max-min: -0.1

Part of the list above in a different format:
Results follow in this order: NPYLR7 agonist | NPYLR7 agonist max-min
- CC(=O)Nc1cccc(NC(=O)CSc2cn(CC(=O)N3CCC(C)CC3)c3ccccc23)c1
→ -5.5 | -8.2
- O=C(c1ccc(C(F)(F)F)cc1)N1CCC2(CC1)SCCN2C(=O)C1CCCCC1
→ 1.3 | 2.1
- O=C(O)c1cc2cc(Cl)ccc2[nH]1
→ -7.4 | -10.7

Not all compounds are listed; count on the stated rates, not on these rows.
